# Source: PubChem BioAssay
# Bst PK mod: alters activity of Bacillus stearothermophilus pyruvate kinase; 51,000 tested, 1.2% active; AID 361; Potency, µM; partly purified Bacillus stearothermophilus pyruvate kinase, luminescence ATP production; ribose 5-phosphate activator present at AC10; in the data active means potency below about 11 µM; inconclusive means mostly about 12 µM to 25 µM; inactive means weaker than that;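 the screen sought inhibitors and activators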;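 note: potency is the fitted concentration of half-maximal effect; scaled between full activation by ribose 5 phosphate and full inhibition by luteolin; about four in five hits inhibit and the cells do not say which; series up to 57 µM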
# YjeE inh: YjeE (TsaE) inhibition, E. coli | P0AF67 | 71,000 tested, 0.05% active | purified YjeE, fluorescence polarisation of a bound ADP probe | Potency, µM; active = well fitted falling curve; inconclusive = weaker or top-dose-only fall, or a rising curve; inactive = flat or poorly fitted curve;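 note: top concentration of the series not given in the record; excess ADP was the control for the full effect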
#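 Fluorescence polarization of a BODIPY Texas Red–ADP probe (2 uM) bound to purified YjeE (10 uM) was read after 15 min room-temperature incubation with compounds. Loss of polarization marks inhibitors; ADP serves as titrated control.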
# The depositor's hits bear a star; i = inactive; . = not tested or not shown. This is a subset (hit frequency here may not be typical).
Molecule,Bst PK mod,YjeE inh
O=C(NC1CCCCC1)C(c1ccco1)N(Cc1ccco1)C(=O)c1ccco1 (stereo not given),>57,i
N#CCCNCC1(c2ccccc2)CCCC1,>57,i
Cc1ccc(C2/C(=C(\O)c3c(C)nc4ccccn34)C(=O)C(=O)N2CCCN(C)C)o1 (stereo not given),>57,i
CC1(C)CC(=O)C2=C(C1)OC(N)=C(C#N)C2C1C=CCCC1 (stereo not given),>11,.
O=C(NCc1ccco1)c1cccc2c1C(=O)N(C1CCCCC1)C2,>57,i
C#C[C@]1(O)CC[C@@H]2[C@H]3CCC4=Cc5oncc5C[C@]4(C)[C@@H]3CC[C@@]21C,.,i
CC1=C(C(=O)Nc2ccccn2)C(c2cccnc2)n2nnnc2N1 (stereo not given),>57,i
CC1=C/C(=C(/c2ccc(O)c(C)c2)c2ccccc2C(=O)O)C=CC1=O,.,i
Cc1cc(C)c2c(n1)nn1c(N3CCN(c4cccc(Cl)c4)CC3)cc(C)nc21,>57,i
O=c1cc(-c2ccc(Cl)c(Cl)c2)[nH][nH]1,>57,i
CCC1CC2(C)NC(=O)c3c(sc4c3CC(C)(C)OC4)N2C1=O (stereo not given),>26,.
COc1ccc(CN2C(=O)c3cccnc3C2Nc2cc(Cl)c(OC)cc2OC)cc1 (stereo not given),>57,i
CCN1CCCC1CN(Cc1cc2cc(C)cc(C)c2[nH]c1=O)C(=O)Nc1ccccc1OC (stereo not given),>57,i
CCCN(CCC(=O)Nc1ccccc1F)CC1CC1,.,i
CN(C(=O)c1cccs1)c1ccccc1C(=O)O,.,i
O=C(COc1ccccc1Cl)Nn1cnnc1,.,i
CCCCNC(=O)CN(C1CCCCC1)S(C)(=O)=O,>57,i
Cc1cc(NC(=O)c2cc(C3CC3)on2)n(-c2ccccc2)n1,.,i
CC1(C(=O)NCCN2CCOCC2)C=CC2(CCCCC2)N1C(=O)c1ccccc1 (stereo not given),.,i
O=C(CSc1ccc2nnc(-c3cccnc3)n2n1)N1CCOCC1,.,i

# 3 entries from above, with values under each structure:
# Screens in order: Bst PK mod | YjeE inh
O=C(NCc1ccco1)c1cccc2c1C(=O)N(C1CCCCC1)C2
→ >57 | i
N#CCCNCC1(c2ccccc2)CCCC1
→ >57 | i
CC1=C(C(=O)Nc2ccccn2)C(c2cccnc2)n2nnnc2N1 (stereo not given)
→ >57 | i

# Remaining list, next part.
Molecule,Bst PK mod,YjeE inh
Nc1ccc2oc(-c3cccc4ccccc34)nc2c1,i,i
COc1cccc2[nH]c3c(N4CCN(Cc5ccc6c(c5)OCO6)CC4)ncnc3c12,.,i
O=C(NCc1nnc(SCC(=O)N2CCCC2)o1)c1ccccc1F,>57,i
O=C(Nc1ccc(N2C(=O)C3C4C=CC(C4)C3C2=O)cc1)Nc1nncs1 (stereo not given),.,i
O=C(NCCc1ccccc1)C1CCCN(S(=O)(=O)c2cccs2)C1 (stereo not given),.,i
CCc1ccccc1N1CC(C(=O)O)CC1=O (stereo not given),>57,i
CCCc1cc(C(=O)NCc2ccc(OC)cc2)no1,.,i
Cn1c(=O)c2c(-c3ccc(C(C)(C)C)cc3)n(N3CCOCC3)cc2n(C)c1=O,>57,i
COCC(=O)N1CCC2(CC1)CN(C(=O)Nc1cccc(F)c1)C2,.,i
Cc1cnc(CNc2ncnc3ccc(-c4ccc5c(c4)OCO5)cc23)cn1,.,i
COc1cc(S(=O)(=O)N2CCOCC2)ccc1NC(=O)COC(=O)C12CC3CC(CC(C3)C1)C2,>57,i
COc1ccc(C(=O)OCc2cc3cccc(C)c3[nH]c2=O)cc1,>57,i
COc1cc2c(cc1OC)CN(C(=O)COc1ccc(C)c(C)c1)CC2,>57,i
Clc1cccc(NCc2nnc(SCc3ccccc3)o2)c1,>57,i
CCCCOC(=O)c1ccc(OC(=O)c2cccnc2)cc1,>57,i
CCCCCn1c(CNC(=O)CC)nc2ccccc21,.,i
CC(=O)Oc1oc(-c2ccccc2)nc1/C=N/c1ccccn1,>26,.
N/C(=N\O)C1COc2ccccc2O1 (stereo not given),>57,i
COCC(=O)N1CCC2(CCN(Cc3cc(C(F)(F)F)cc(C(F)(F)F)c3)CC2)CC1,.,i
Cc1nc2sc(C(c3cccs3)N3CCN(Cc4ccccc4)CC3)c(O)n2n1 (stereo not given),.,i

# Later entries
Molecule,Bst PK mod,YjeE inh
O=C(CCN1CCCCCC1)Nc1ccc(F)cc1,>57,i
O=C(c1nc(-c2ccccc2)n(-c2ccccc2)n1)N1CCCCCC1,>57,i
COc1ccc(N2CCN(C(c3cccs3)c3nnnn3C3CCCC3)CC2)cc1 (stereo not given),>57,i
CCc1nc(OCCN(C)C)c2oc3ccccc3c2n1,>57,i
CCOc1ccc(-c2nnc3ccc(SCC(=O)N4CCN(c5ccccc5)CC4)nn23)cc1,>57,i
CCC(C(=O)c1ccc(O)cc1)c1ccccc1 (stereo not given),>57,i
CCOc1ccccc1N(CC(=O)NC(C)(C)C)C(=O)c1ccc(CN2CCOCC2)o1,>57,i
Cc1nn2c(N3CCN(C(=O)c4ccco4)CC3)cc(C(C)(C)C)nc2c1-c1ccccc1,>57,i
C=CCNC(=O)Cn1nc(-c2ccccc2)ccc1=O,>57,i
CC(C)Cc1c(O)nc(SCCN2CCOCC2)[nH]c1=O,>57,i
CC(C)Cc1nc2oc3c(NCc4cccnc4)ncnc3c2c2c1CCC2,>57,i
Cc1noc(C)c1C(=O)N1CCC2(CC1)CN(c1ncccn1)C2,.,i
O=C(CNS(=O)(=O)c1ccc(Br)s1)Nc1ccc2c(c1)OCCO2,>11,i
O=C(O)C1CC(=O)N(CCc2c[nH]c3ccccc23)C1 (stereo not given),>57,i
COCCOCCn1c(CCCO)nc2ccccc21,>57,i
Oc1ccc(Cc2nccc3cc(O)c(O)cc23)cc1O,.,i
CC(=O)Nc1ccc(Cc2ccc3[nH]c(=O)cc(C)c3c2)cc1,.,i
CSc1sc(C(=O)O)c2c1C(=O)CCC2,>26,.
CCOC(=O)c1cc2sccc2n1CC(=O)N1CCN(C(=O)c2ccco2)CC1,>57,i
O=C(CN1C(=O)C2C3C=CC(C3)C2C1=O)NCCC1=CCCCC1 (stereo not given),>57,i

# Going on with the list.
Molecule,Bst PK mod,YjeE inh
COc1ccc(-c2csc(N(CCCN(C)C)C(=O)c3cccs3)n2)cc1,i,i
C/C(N)=C(/C#N)C(=O)CSc1n[nH]c(-c2ccccc2Br)n1,>57,i
N#CCSc1nnc(COc2cccc3ccccc23)n1-c1cccc(Cl)c1,>57,i
O=C(NCc1ccc(Cl)c(Cl)c1)c1ccco1,.,i
Nc1cc(-c2ccc(Br)cc2)nn1S(=O)(=O)c1ccccc1,.,i
CCOCc1nc(C)c(Cl)c(NS(=O)(=O)c2ccc(N)cc2)n1,>57,i
C=CCn1c(SCC(=O)Nc2c(C)cccc2C)nnc1-c1ccncc1,>57,i
Cc1nn(C(=O)c2cc3sccc3[nH]2)c(C)c1C,>57,i
Cc1c(C2N3CC4(C)CN2CC(C)(C3)C4=O)c2ccccc2n1C (stereo not given),>57,i
Cc1c(C(=O)OCC(C)C)[nH]c2c1C(=O)CC(c1ccco1)C2 (stereo not given),.,i
CCOc1ccc(OCC)c(NC(=O)Cn2cccc2)c1,>57,i
Cc1nnc(NC(=O)C(C)Sc2nncn2C)s1 (stereo not given),.,i
CCN(CC)CCOC(=O)C1(c2ccccc2)CCOCC1,>57,i
CCCN(CCO)Cc1cccc(Br)c1,>57,i
Cn1c(SCc2nc(-c3ccc(Cl)cc3)no2)nnc1-c1ccco1,.,i
CCOC(=O)N1CCC(NC(=O)C2CCC(CNS(=O)(=O)c3ccc(OC)cc3)CC2)CC1 (stereo not given),>57,i
Cc1ccc(C)c(S(=O)(=O)C(C#N)c2nc3ccccc3nc2N2CCCC2)c1 (stereo not given),>57,i
Fc1ccccc1OCCCCn1cncn1,>57,i
O=C(O)C1(c2cccc(Cl)c2)CCC1,>57,i
c1cncc(-c2cc(NCc3cccs3)ncn2)c1,.,i

# Other records
SMILES | Bst PK mod | YjeE inh
O=C(c1cccc(F)c1)N1CCc2ccccc21 | . | i
COc1cccc(-c2cc(C(=O)Nc3cnn(Cc4ccccc4C)c3)no2)c1 | >57 | i
COc1ccc(NC(=O)CSc2nccn2-c2ccccc2)c(OC)c1 | >57 | i
CCOC(=O)c1ccccc1OCc1cc(/C=N/n2cncn2)ccc1OC | >26 | .
CCN1C(=O)c2ccccc2S(=O)c2ccc(C(=O)N3CCCCCC3)cc21 (stereo not given) | . | i
CCOC(=O)CNC(=O)Nc1ccccc1C(=O)OC | >26 | .
CC[C@](N)(C(=O)O)C(C)C | . | i
Cc1cc(NCCCN2CCOCC2)n2nc(C)c(-c3ccc(F)cc3)c2n1 | >57 | i
Cc1noc(C)c1C(=O)N1CCC[C@@]2(CCN(Cc3ccccc3)C2)C1 | . | i
CC(C)Oc1ccc(/C(O)=C2/C(=O)C(=O)N(CCN(C)C)C2c2ccco2)cc1 (stereo not given) | >26 | .
Cc1noc(NS(=O)(=O)c2ccc(NC(=O)CCC3CCCCC3)cc2)c1C | >57 | i
CCN1CCN(CCCNc2ncnc3nc[nH]c23)CC1 | . | i
CCCn1c2ccccc2c2cc(C(=O)O)ccc21 | . | i
CC1CC(C)CN(S(=O)(=O)c2ccc3c(c2)oc(=O)n3CC(=O)N2CCOCC2)C1 (stereo not given) | . | i
COc1ccc(C2c3sc(=O)[nH]c3SC3C4CCC(C4)C23)cc1 (stereo not given) | >57 | i
O=C(CCS(=O)(=O)Cc1ccccc1)NC1CCCCC1 | >57 | i
COc1ccc(C(OC(=O)c2ccco2)C(=O)NCC2CCCO2)cc1 (stereo not given) | >57 | i
O=C(C(c1ccccc1)c1ccccc1)N1CCN(CC(O)COc2ccccc2)CC1 (stereo not given) | >57 | i
O=C1CC(Nc2ccc(N3CCOCC3)cc2)C(=O)N1c1cccc(C(F)(F)F)c1 (stereo not given) | . | i
CCOC(=O)N1CCN(C(=O)CS(=O)(=O)c2cn(Cc3cccc(F)c3)c3ccccc23)CC1 | >57 | i
Cn1ncc2c1ncn1nc(CCc3ccccc3)nc21 | >57 | i
O=C1CN2C(=Nc3ccc(Cl)cc3C2c2ccccc2)CN1 (stereo not given) | >57 | i
CC1(C)Cc2c(sc3c2c(=O)n(Cc2ccccc2)c2nncn32)CO1 | >57 | i
Cc1cc2c(c(=O)n1CCN(C)C)C(c1ccncc1)C(C#N)=C(N)O2 (stereo not given) | >57 | i
COc1ccc2[nH]c(C)c(C(=O)CN3CCOCC3)c2c1 | >26 | .
Cc1ccc(C)c(N2CCN(CCCNC(=O)Cn3cc4c(n3)CCCCC4)CC2)c1 | . | i
CCc1c(C)sc(NC(=O)c2cc(-c3cc(OC)ccc3OC)on2)c1C#N | >11 | i
O=C(Cc1cn2ccsc2n1)Nc1nc2c(s1)CCCC2 | >57 | i
c1ccc(Nc2cccc3ccccc23)cc1 | . | i
C(=N\n1cnnc1)/c1ccccn1 | >26 | .

# Complete entries as entered above. Screens in order: Bst PK mod, YjeE inh
# `Clc1cccc(NCc2nnc(SCc3ccccc3)o2)c1` is listed with >57, i
# `O=C(CSc1ccc2nnc(-c3cccnc3)n2n1)N1CCOCC1` is listed with ., i
# `Cc1c(C2N3CC4(C)CN2CC(C)(C3)C4=O)c2ccccc2n1C` (stereo not given) is listed with >57, i

# Other entries
SMILES | Bst PK mod | YjeE inh
O=C(c1cc(C(F)(F)F)cc(C(F)(F)F)c1)N1CCC2(CCCN(c3ccncc3)C2)CC1 | . | i
CCn1c(=O)c2c(nc(SCc3ccccn3)n2C)n(C)c1=O | >57 | i
COc1ccc2occ(C(=O)c3coc4ccc(O)c(CN(C)C)c34)c2c1 | . | i
CC1(C)NC(=O)N(CC(O)COc2ccc(-c3ccccc3)cc2)C1=O (stereo not given) | >57 | i
CCOC(=O)c1cnc(-n2nc(C)cc2C)nc1N1CCOCC1 | . | i
CCNc1ncc2nc(-c3ccc(F)cc3)c(=O)n(C[C@H]3CCCO3)c2n1 | . | i
N#Cc1ccccc1Sc1ccccc1C(=O)OCc1nnc(-c2ccccc2)o1 | >57 | i
Nc1nc(Cl)cc(NCCO)n1 | . | i
COc1ccc(CCNC(=O)COc2ccc(S(=O)(=O)N3CCOCC3)cc2)cc1 | >57 | i
CCCc1cc(=O)oc2cc(Oc3ncccn3)ccc12 | >57 | i
COC(=O)c1ccc2c(c1)N(Cc1nc(-c3cccc(C)c3)oc1C)C(=O)C1CCCN21 (stereo not given) | . | i
CCCC(=O)NCCc1cc2ccc(OC)cc2[nH]c1=O | >57 | i
Cc1ccc(C(=O)c2nocc2C(=O)c2cccs2)cc1 | . | i
CC1(C)CC(=O)C(C=Nc2ccncc2)=C(O)C1 | . | i
O=C(c1ccc(-c2ccccc2)cc1)N1CCCC1 | . | i
CC(C)Cn1c(=O)c(C(=O)NCc2ccccn2)c(O)c2ccccc21 | >57 | i
CC(C)(C)NC(=O)[C@@H]1C[C@H]2CCCC[C@@H]2CN1C[C@H](O)[C@H](Cc1ccccc1)NC(=O)[C@@H](CC(N)=O)NC(=O)c1ccc2ccccc2n1 | . | i
COc1cccc(NS(=O)(=O)c2ccc(Br)s2)c1 | >57 | i
COc1ccccc1-c1nnc(SCC(=O)Nc2nc(-c3ccccc3)cs2)n1C | >57 | i
COc1ccccc1C(=O)N1CCN(C(=O)c2ccncc2)CC1 | . | i
CCOc1ccc(C2C=C(c3ccc(C)cc3)Nc3ncnn32)cc1 (stereo not given) | i | i
